Rango-impB inh: Rango-importin beta binding inhibition. Q14974. Rango CFP/YFP FRET sensor + importin beta, 45 min. hit rate 0.031% among 340,000. Potency, µM (series often up to 92.2 µM), inactives show top-dose inhibition of complex formation. AID 540263; active = rising FRET ratio curve, often small or poorly fitted; inconclusive = mostly compound fluorescence or quenching in the first reads; inactive = flat curves in all reads;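 also: potency is read from the fitted curve at half-maximal effect; 0% = DMSO wells and 100% = buffer wells lacking importin beta; nearly all actives have a fitted effect of over 15% in size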
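FRET biosensor Rango (snurportin 1 IBB between N-terminal EYFP and C-terminal Cerulean), 50 nM in PBS/1 mM DTT/0.02% Tween-20/0.1% BSA, preincubated 5 min RT with compound; 0.125 microM importin beta added, 45 min RT, CFP/YFP FRET ratio read.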
Rango dissoc inh: inhibitors of RanGTP-induced Rango-importin beta complex dissociation; O95149+P62826; Biochemical FRET Rango-importin beta, RanGTP-induced dissociation; Potency, µM (top dose mostly 46.1 µM), for inactives: top-dose activity change, negative = inhibition; hit rate 0.071% among 340,000; active means falling FRET ratio curve, often poorly fitted, with flat reads before Ran was added; inconclusive means other falling curves, or compound fluorescence or quenching; inactive means flat or rising ratio curve;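 also: potency is read from the fitted curve at half-maximal effect; % of control where 0% means no effect; nearly all actives have a fitted effect of over 45% in size; -100% = wells without RanGTP and RCC1; the record marks most hits as doubtful in a second field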
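Rango (0.1 uM)–importin beta (0.25 uM) complex; RanGTP-RCC1 trigger; 45 min RT; CFP/YFP FRET read.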
miR-21 FLuc: raises the signal of a miR-21 reporter; HeLa miR-21 FLuc reporter, luciferase, 48 h; AID 2288; Potency, µM (highest dose often 38.3 µM), inactives show top-dose reporter change, positive = more light; 340,000 tested, under 10 active; active = well fitted rising curve with a large enough effect; inconclusive = small, poorly fitted or top-dose-only effect; inactive = no such curve, though single readings can be large or run the other way;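 also: % of control where 0% means no effect; miR-21 action dims this reporter so a rising signal means less miR-21 action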
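HeLa cells endogenously expressing miR-21, stably carrying CMV-driven firefly luciferase with a downstream miR-21 binding site, 2000 cells/well. Titrations up to approximately 40 uM, 48 hours; luciferase luminescence read.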
GLA inh pH 4.5: inhibitors of human alpha-galactosidase A at pH 4.5 | P06280 | purified enzyme, 4-MU-alpha-Gal fluorescence, pH 4.5 | activity change, negative = inhibition, % at 105 µM | 230,000 tested, under 10 active | AID 1467; inconclusive = small, poorly fitted or top-dose-only inhibition, or a rising curve; inactive = flat fitted curve, though single readings scatter; no compound was filed as active;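 also: 0% = full activity with enzyme and -100% = basal without enzyme; dose as in the result columns while the protocol names 77 µM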
Target sequence (P06280 whole entry, looked up): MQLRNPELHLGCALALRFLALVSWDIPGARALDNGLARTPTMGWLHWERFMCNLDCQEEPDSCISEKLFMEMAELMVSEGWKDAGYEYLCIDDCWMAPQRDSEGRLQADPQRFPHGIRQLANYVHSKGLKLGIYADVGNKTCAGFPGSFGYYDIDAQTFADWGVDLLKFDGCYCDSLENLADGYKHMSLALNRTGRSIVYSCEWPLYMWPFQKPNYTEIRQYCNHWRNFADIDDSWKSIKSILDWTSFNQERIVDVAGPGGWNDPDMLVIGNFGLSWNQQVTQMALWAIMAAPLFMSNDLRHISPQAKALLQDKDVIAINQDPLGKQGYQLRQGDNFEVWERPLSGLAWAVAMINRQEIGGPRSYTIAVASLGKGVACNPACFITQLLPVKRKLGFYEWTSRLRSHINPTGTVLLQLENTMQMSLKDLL
An asterisk follows results filed as active; ? = inconclusive; · = not tested or not shown; & = joins results of further samples. Only part of the results is shown (hit frequency here may not be typical).

mol | Rango dissoc inh | Rango-impB inh | GLA inh pH 4.5 | miR-21 FLuc
COc1ccc(CC(=O)Nc2nc3n(n2)C(c2ccccc2)CC(=O)N3)cc1OC (stereo unspecified) | 33% | -0.4% | -9 | -1%
Cc1nnc(SCc2cc(=O)[nH]c(N3CCN(C)CC3)n2)s1 | 0% | 4.8% | -1 | -12%
Cc1cc(OC(=O)c2ccccc2Br)cc(=O)n1C | -4% | 1.2% | -4 | 1%
C=CCc1cccc(CNc2nc3ccccc3n2CCC)c1O | -16% | 1.8% | -10 | 16%
O=C1NC(c2ccccc2)=N/C1=C/c1ccco1 | -15% | ? | -6 | -56%
O=C1COc2ccc3ccccc3c2CN1 | -3% | -5.6% | -2 | -16%
CCCc1cc(=O)oc2c(C)c(OC(C)C(=O)NCCN3CCOCC3)ccc12 (stereo unspecified) | -2% | 1.5% | · | -11%
S=C(Nc1ccccn1)NC1CCCC1 | 1% | 1.5% | 15 | 0%
COC(=O)c1cc(-c2ccccc2)nc2nc(SC)[nH]c(=O)c12 | 2% | -0.1% | · | 1%
CCN(CC)C(=O)CCSc1nnc(-c2ccco2)o1 | 19% | 0.0% | 4 | -30%
CC(=O)N(/N=C1\Sc2ccccc2C1=O)c1cccc(C)c1 | ? | ? | 6 | -50%
CC(=O)Nc1ccc(S(=O)(=O)NC2(C(F)(F)F)C(=O)Nc3c2c(=O)[nH]c(=O)n3C)cc1 (stereo unspecified) | -2% | -0.2% | -11 | -1%
CCOC(=O)C1=C(C)NC2=C(C(=O)C(C(=O)OC)C(C)C2)C1c1ccc(OC)c(O)c1 (stereo unspecified) | -8% | 1.3% | 0 | -3%
O=C(C1CC(=O)N(C2CCCC2)C1)N1CCN(c2ccccc2F)CC1 (stereo unspecified) | 0% | 0.4% | -1 | 0%
CC(NCC(=O)NC(=O)NC1CCCC1)c1ccc(Cl)cc1Cl (stereo unspecified) | -7% | -4.1% | · | ·
CCc1nc(N)nc(N)c1-c1ccc(N(C)Cc2ccccc2)c([N+](=O)[O-])c1 | 0% | 4.6% | · | ·
CC(=O)Nc1ccc(NC(=O)CCNS(=O)(=O)c2cccc3nsnc23)cc1 | -2% | 1.1% | -7 | -1%&6%
COc1ccc(CC(=O)OCc2csc(CC(=O)Nc3ccc(C)cc3)n2)cc1 | -6% | 4.7% | · | ·
O=C(O)C1C2C=CC(O2)C1C(=O)NCCc1cccc(Cl)c1 (stereo unspecified) | 1% | -1.4% | 6 | -8%
Cc1cc(C)c(Nc2ncnc(N)n2)c(C)c1 | -8% | -0.6% | -13 | 2%
COCCCNC(=O)CCCn1c(=O)c2ccccc2n(Cc2cccc([N+](=O)[O-])c2)c1=O | -5% | 1.5% | -6 | 0%
O=C(Cc1ncc(C(F)(F)F)cc1Cl)NNc1cccc(F)n1 | 10% | 2.2% | · | -4%
COc1ccc(-c2ccnc(-c3ccc(O)cc3)n2)cc1 | -7% | 0.1% | -3 | -10%
O=C(N/N=C/c1cccc([N+](=O)[O-])c1)c1cccc(Br)c1 | 9% | -4.4% | 4 | -7%
O=C(c1ccccc1-c1nc(-c2ccc(F)cc2)no1)N1CCCC1 | 1% | -0.3% | -3 | -18%
CCc1cc(/C(Cc2ccccn2)=N\Nc2ccccc2)c(O)cc1O | -1% | -1.4% | -16 | -21%
O=C(CCc1nnc(C2CCCCC2)o1)NCCCOc1cccnc1 | 0% | 1.1% | 4 | 0%
COCCN(C(=O)c1ccccc1F)c1nnc(-c2ccc(OC)cc2)s1 | -3% | -5.7% | · | -28%
O=C(O)c1ccc2c(c1)CCC2 | -10% | 2.6% | -4 | -1%
CCCS(=O)(=O)N1CCCC(C(=O)NCCCN(C)Cc2ccccc2)C1 (stereo unspecified) | 5% | -2.2% | -1 | -3%
O=C(CCc1nc2ccccc2[nH]c1=O)OCC(=O)N1CCc2ccccc21 | 8% | 6.3% | 12 | -2%
Cc1ccn2cc(C(=O)N3CCCC(Nc4ccc(F)cc4)C3)nc2c1 (stereo unspecified) | -10% | -5.0% | · | -12%
Cc1ccc(NC(=O)CSC(C)C(=O)OCC(=O)N2CCN(C(=O)c3ccco3)CC2)cc1 (stereo unspecified) | 18% | -2.3% | · | ·
O=C(O)CCC(NC(=O)OCc1ccccc1)C(=O)O (stereo unspecified) | -3% | 2.8% | 1 | -2%
CC1(C)CC2CC(C)(CN2C(=O)c2ccccc2)C1 (stereo unspecified) | 2% | 2.1% | -6 | 0%
O=C(Nc1nnc(-c2cccnc2)o1)c1ccccc1Cl | 2% | -0.2% | -4 | -10%
Cc1cccc(C(=O)O/N=C(\N)Cc2cccc3ccccc23)c1 | 2% | -0.7% | · | 3%
Fc1ccc(N2CCN(C(c3cccs3)c3nnnn3C3CCCC3)CC2)cc1 (stereo unspecified) | 10% | 1.7% | -3 | 12%
Cc1cc(OCC(=O)Nc2ccncc2)ccc1Br | -1% | -0.4% | -1 | 1%
Cc1nc(SCC(=O)Nc2ccc(C)c(F)c2)c2oc3ccccc3c2n1 | 2% | -0.5% | 5 | 0%
c1coc(C2=NC(c3ccco3)C(c3ccco3)N2)c1 (stereo unspecified) | -15% | -2.2% | · | ·
COc1cc(C(=O)NC(=S)Nc2ccccc2[N+](=O)[O-])cc(OC)c1OC | 4% | ? | 1 | -7%
Cc1noc(C)c1S(=O)(=O)N1CCC(C(=O)N2CCN(c3ccc(Cl)cc3)CC2)CC1 | -13% | -0.3% | -5 | 15%
O=C(O)c1oc2ccccc2c1CSCc1ccccc1 | -11% | -0.1% | 0 | -18%
O=C(Nc1cccc(S(=O)(=O)N2CCCC2)c1)c1cc(-c2ccccn2)nc2ccccc12 | -6% | 0.3% | ? | 0%
CCOc1ccc(-c2nnc(SCC(=O)N(CC)CC)n2N)cc1 | 0% | -1.2% | 4 | 0%
COc1ccc(CCNC(=O)CSc2nc(C)cs2)cc1 | ? | 0.4% | 4 | -11%
CCOC(=O)c1c(C)[nH]c(C(=O)OC(C)C(=O)NC2CCCCC2C)c1C (stereo unspecified) | -1% | -5.9% | · | ·
Cc1ccc(N(CCC#N)C(=O)CSc2nnc3ccccn23)cc1 | 8% | 4.4% | · | ·
O=C(NCc1cccnc1)/C(=N\O)c1ccccc1 | 0% | -0.5% | 4 | -2%
C=CCn1c(SCC(=O)N(C)C2CCS(=O)(=O)C2)nnc1-c1ccccc1 (stereo unspecified) | 0% | -2.9% | · | ·
COC(=O)c1ccc(NC(=O)COc2ccc3c(c2)OCO3)cc1 | 1% | 0.0% | · | -9%
O=C(NC12CC3CC(CC(C3)C1)C2)N1CCN(c2ccccc2)CC1 | 3% | 6.3% | · | -9%
CC(C)CC(=O)N1CCN(c2ccc(NC(=O)c3ccco3)cc2)CC1 | 7% | -1.4% | · | -3%
O=C(Nc1ccc(F)cc1)N1CCN(c2nc3ccccc3s2)CC1 | 3% | -0.2% | -4 | 21%
COc1cccc(CN2CCNC(=O)C2CC(=O)NCc2cn3cccc(C)c3n2)c1OC (stereo unspecified) | -1% | -1.7% | -3 | -1%

Remaining list, next part
mol | Rango dissoc inh | Rango-impB inh | GLA inh pH 4.5 | miR-21 FLuc
CC1CCCN(C(=O)c2ccc3c(=O)n(C4CCCC4)c(=S)[nH]c3c2)C1 (stereo unspecified) | 8% | -1.1% | 2 | 4%
CNC(=O)c1c(NC(=O)c2ccc3ncsc3c2)sc(C)c1C | ? | ? | · | ·
Cc1cc(C(=O)N(C)Cc2c(F)cccc2Cl)c2ccccc2n1 | -2% | 0.3% | · | 15%
O=C(Nc1ccc(NS(=O)(=O)c2ccc([N+](=O)[O-])cc2)cc1)c1ccco1 | 1% | 3.2% | · | 0%
CCOc1ccc(Nc2ncnc3ccc([N+](=O)[O-])cc23)cc1 | -3% | 0.0% | -1 | 25%
O=C(NCC(=O)N(CCN1CCOCC1)C(C(=O)NC1CCCC1)c1ccccc1)c1cccs1 (stereo unspecified) | 5% | -0.2% | 4 | -3%
CCOC(=O)CN1C(=O)C(C)(C)Oc2ccc(C(=O)NC(C)(C)CC)cc21 | 0% | -4.9% | -6 | -7%
Cc1cccnc1Oc1ncccc1N | 1% | -1.3% | · | ·
CC1=C(OC(=O)c2ccccc2)C(C)(C)C(c2ccc(Br)cc2)OC1=O (stereo unspecified) | 13% | 4.9% | 6 | -3%
CCN(c1ccccc1)S(=O)(=O)c1ccc(Oc2ccccc2C(C)=O)nc1 | -3% | -3.6% | · | ·
CC(C)OC(=O)CSc1nnc(-c2cnccn2)n1-c1ccc(Cl)cc1 | 0% | -1.4% | -5 | -8%
O=C(c1c[nH]c(C(=O)C(Cl)(Cl)Cl)c1)c1ccccc1Cl | 2% | -0.1% | 7 | -3%
O=C(O)C(Oc1ccc2c(c1)oc(=O)c1ccccc12)c1ccccc1 (stereo unspecified) | -9% | -2.9% | · | -5%
Cc1ccnc(N2CCC(C(=O)Nc3nnc(C)s3)CC2)n1 | 13% | -4.5% | 9 | 0%
COc1ccccc1C1=NOC(COC(=O)c2ccc([N+](=O)[O-])cc2)C1 (stereo unspecified) | 14% | -0.9% | -3 | -1%
O=C(Cn1nc(Cc2cccnc2)c2ccccc2c1=O)NCc1ccc(F)cc1 | -2% | 1.9% | 2 | -11%

A second format for some results above.
Sequence of screens – Rango dissoc inh, Rango-impB inh, GLA inh pH 4.5, miR-21 FLuc
Cc1ccnc(N2CCC(C(=O)Nc3nnc(C)s3)CC2)n1
→ 13%, -4.5%, 9, 0%
COCCN(C(=O)c1ccccc1F)c1nnc(-c2ccc(OC)cc2)s1
→ -3%, -5.7%, ·, -28%
O=C(O)c1oc2ccccc2c1CSCc1ccccc1
→ -11%, -0.1%, 0, -18%

New compounds follow
mol | Rango dissoc inh | Rango-impB inh | GLA inh pH 4.5 | miR-21 FLuc
COc1ccc(C(=O)N(NC(=O)Oc2ccccc2)C(C)(C)C)cc1 | 13% | -0.2% | 3 | 4%
O=C(Nc1ccc(F)cc1)Nc1ccccc1C(=O)NCCN1CCNC1=O | 8% | -1.4% | -2 | 3%
COc1ccc(-c2cc(C(F)(F)F)nc(SCCC(=O)N3CCOCC3)n2)cc1 | 5% | 0.3% | -3 | -3%
COc1ccc(OCc2ccc(-c3nc4ccccc4c(=O)n3N)o2)cc1 | -20% | -2.5% | 0 | -13%
C=CCn1c(=N)c(S(=O)(=O)c2ccc(C)c(C)c2)cc2c(=O)n3ccccc3nc21 | ? | ? | · | -3%
O=C(COc1ccccc1Cl)Nc1ccccc1C(=O)N1CCCCC1 | 24% | -0.2% | · | -63%
Cc1cccc(-c2cc3nc(C)cc(NCCCN(C)C)n3n2)c1 | -2% | ? | 0 | -3%
COCCN(C(=O)c1cc(CN2C(=O)c3ccccc3C2=O)ccc1OC)c1c(N)n(CC(C)C)c(=O)[nH]c1=O | 1% | -3.2% | · | ·
Nc1c(C(=O)CSc2nnc(-c3ccccc3)o2)c(=O)[nH]c(=O)n1C1CC1 | 0% | -2.0% | · | ·
CC(=O)/C=C(\C)Nc1ccccc1O | -15% | -1.0% | -1 | -5%
O=C(OCn1nnc2ccccc2c1=O)c1cc(-c2ccccc2Cl)nc2ccccc12 | 9% | -1.5% | -1 | -3%
COc1ccc(/C=N/NC(=O)c2nonc2N)cc1OC | -2% | 0.1% | -4 | -9%
Clc1cc(Cl)c2nc(N3CCOCC3)sc2c1 | 12% | -1.2% | 5 | -75%
COC(=O)c1cc(COC(=O)c2ccc(OC)c(S(=O)(=O)N3CCCC3)c2)oc1C | 20% | -0.4% | -3 | -2%
CCc1ccc(-c2ccc(SCC(=O)Nc3nnc(C)s3)nn2)cc1 | -5% | 3.7% | 2 | -20%
Cc1cnc(CNC(=O)c2ccc(OC3CCN(C(=O)C4CC4)CC3)cc2)cn1 | 33% | 1.1% | 4 | -1%
N#Cc1cc(S(=O)(=O)c2ccc(F)cc2)c(N)[nH]c1=O | 9% | -1.2% | 13 | -3%
COc1cc(CN2CCCC(CO)(Cc3cccc(Cl)c3)C2)cc2c1OCO2 (stereo unspecified) | 6% | -2.7% | -7 | -5%
COc1ccc(/C=C/C(=O)c2ccc3c(c2)OCO3)cc1OC | -2% | ? | · | ·
Cn1c(=O)c2ncn(C)c2n(C)c1=O | ? | -0.7% | · | ·
CCOc1ccc(NC(=O)CN(C)CC(=O)Nc2cccc(Cl)c2C)cc1OCC | 6% | -2.3% | 0 | 4%

Screening data: PubChem BioAssay, National Center for Advancing Translational Sciences (NCATS)
